Screens: PubChem, ICCB-Longwood Screening Facility, Harvard Medical School
HCMV UL50-53 inh: inhibitors of HCMV UL50-UL53 interaction, biochemical, HTRF | normalized percent inhibition | HCMV UL50-UL53 nuclear egress complex (human cytomegalovirus) | 190,000 compounds, 0.15% hits | AID 1918969, 2023 | inhibition, % (concentration not given with the values);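 active = both replicates at 50% or more, plus weaker picks with an unusually low signal ratio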;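 also: stock transfer was 100 nL into about 20 µL; 0% = negative control wells and 100% = wells with untagged competitor protein; inactives centre near -12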
GIV Gai3 FP: inhibitors of GIV peptide binding to Galpha-i3, primary screen, biochemical, fluorescence polarization, FITC-GIV GBA peptide, rat Galphai3; AID 1224905, 2016; 90 min; active compounds read low; scaled: aluminum fluoride 0%, vehicle 100%; percent of control (FP), % (test concentration not listed); 210,000 compounds, 0.42% hits;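 active = replicate mean at 85% of control or lower, very high polarization wells dropped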;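 also: lower values mean more displacement of the GIV peptide from Galpha-i3; wells of about 15 µL received 100 nL stock; the first replicate is given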
Target sequence (P08753 whole entry, looked up): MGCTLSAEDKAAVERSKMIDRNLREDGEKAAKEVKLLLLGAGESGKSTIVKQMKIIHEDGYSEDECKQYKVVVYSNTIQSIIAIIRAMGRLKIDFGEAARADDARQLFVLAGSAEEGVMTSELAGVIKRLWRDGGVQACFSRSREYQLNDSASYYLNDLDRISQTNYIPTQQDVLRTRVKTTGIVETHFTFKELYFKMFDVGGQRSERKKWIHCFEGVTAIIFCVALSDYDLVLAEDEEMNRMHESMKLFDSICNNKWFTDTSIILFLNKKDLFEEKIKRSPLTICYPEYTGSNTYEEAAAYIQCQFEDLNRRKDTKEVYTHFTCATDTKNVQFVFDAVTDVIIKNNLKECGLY
Sa growth 42C: S. aureus growth inhibition at 42 and 30 °C, primary screen, LtaS inhibitor project, RN4220, two temperatures; OD600, 20 h, 42 °C; active compounds read low; relative growth, % (test concentration not listed); 170,000 compounds, 0.53% hits;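 active = growth at 42 °C up to 50% and 20 or more points under that at 30 °C, or under 10% at both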;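 also: 300 nL library stock went into each well; scaled to the means of positive and negative controls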
Sa growth 42C second temp: also measured in Sa growth 42C; calls as there; relative growth, %; measured here: growth at 30 °C;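 optical density after 20 h as mean of two plates; 100% = untreated growth and lower means inhibition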
Starred values were filed as active, the others as inactive; / = not tested or not shown; & = joins results of further samples.

SMILES	HCMV UL50-53 inh	GIV Gai3 FP	Sa growth 42C	Sa growth 42C second temp
CCOc1nc(C)c(CC(=O)O)c(OCC)n1	-6	106	112	91
O=S(=O)(Nc1ccc2c(c1)OCO2)c1ccc2ccccc2c1	8	/	99	87
COC(=O)c1ccc(NC(=O)Nc2ccc(C)cc2)cc1	-16	104	109	105
O=C1NCCCc2nc(Oc3ccccc3)sc21	-17	/	91	85
Cc1ccc2c(=O)c(C(=O)c3cccc(Cl)c3)cn(CC(=O)NCC3CCCO3)c2n1 (stereo not drawn)	-24&5	107&120	88	87
CCOC(=O)c1c(C)oc2ccc(N(C(=O)c3ccncc3)S(=O)(=O)c3ccc(Br)cc3)cc12	/	103	97	91
CC(C)Cc1nnc(C(=O)Nc2ccc(C(=O)N3CCN(c4ccccn4)CC3)cc2)s1	12	95	/	/
Cc1ccc(-c2noc(CCC(=O)N(C)C)n2)c(=O)n1C(C)C	-12	107	/	/
CCS(=O)(=O)Nc1cccc(C2=NN(S(C)(=O)=O)C(c3ccccc3F)C2)c1 (stereo not drawn)	-49	133	/	/
COc1ccc(C(=O)c2sc3nc(-c4cccs4)cc(-c4cccs4)c3c2N)cc1	-5	/	74	84
Cc1cccc(-c2nc(-c3ccc(N4CCN(c5ccc(C(F)(F)F)cn5)CC4)nc3)no2)c1	-24	105	100	93
COc1cc(/C=C2\N=C(c3cc([N+](=O)[O-])ccc3Cl)OC2=O)ccc1OC(C)=O	-26	103	/	/
Nc1c(-c2nc(-c3cccs3)no2)nnn1-c1cccc(F)c1	/	100	90	90
Cc1ccc(C(=O)C2=C(N)OC3=C(C(=O)CCC3)C2c2ccccc2Cl)cc1 (stereo not drawn)	16	106	/	/
Cc1ccc(-c2nnc(Nc3ccc(OCC(N)=O)cc3)c3ccccc23)cc1S(=O)(=O)N(C)C	-27	107	98	80
CCn1c(=O)c2cc(C(=O)N3CCN(Cc4ccccc4)CC3)sc2c2ccccc21	/	104	89	46
CC1/C(=N\O)CC(c2ccccc2)N(C)C1c1ccccc1 (stereo not drawn)	-2	97	110	69
CC1=C(C(=O)Nn2cnc3cccc(F)c3c2=N)Sc2ccccc2N1	2	102	111	92
S=C(NCCc1ccccc1)N1CCN(c2ncccn2)CC1	2	107	98	88
Brc1ccc(-c2nnc(CC34CC5CC(CC(C5)C3)C4)o2)cc1	0	105	92	100
Cc1cc(NC(=O)c2cccc(F)c2)ccc1NC(=O)c1ccco1	8	105	81	96
CC(C)Oc1ccc(CNC(=O)CN2C(=O)CCc3cc(S(=O)(=O)N4CCCCC4)ccc32)cc1	/	96	79	88
CCOc1ccc(C(=O)C(C)Sc2nnc(-c3ccc(Br)cc3)o2)cc1 (stereo not drawn)	8	102	/	/
CCCCCn1c(=N)n(CC(O)COc2cccc(C)c2)c2ccccc21 (stereo not drawn)	-31	108	91	59
COc1cccc(-n2c(=S)sc3c(=O)n4[nH]c(=O)c5ccccc5c4nc32)c1	-14&-25	101&104	44	53
O=C(c1ccc2c(c1)N(Cc1ccc(Cl)cc1)C(=O)c1ccccc1S2(=O)=O)N1CCN(Cc2ccccc2)CC1	-35	104	93	94
O=C(c1cc2nc(C3CC3)cc(C(F)(F)F)n2n1)N1CCCC1c1ccc(Cl)cc1 (stereo not drawn)	-43	109	/	/
COc1ccc(C(C(=O)NCc2ccccc2)N(C(=O)Cn2nnc3ccccc32)c2ccc(F)cc2)cc1 (stereo not drawn)	-10	105	88	89
COc1cccc2cc(C(=O)NC(C)=O)c(=Nc3cccc(C(F)(F)F)c3)oc12	-11	103	/	/
O=c1[nH]cnc2c1sc1nc(-c3ccccc3)cc(-c3ccccc3)c12	-5	/	86	84
CCC(=O)Oc1ccc2c3c(c(=O)oc2c1)CCC3	-19	/	99	93
CCn1c(SC(C)C(=O)c2ccc(Br)cc2)nnc1-c1cccs1 (stereo not drawn)	-2	/	86	88
O=c1oc2ccccc2n1Cn1c(=O)oc2ccccc21	-6	/	76	87
Cc1cc(=O)oc2c(CN(C)C)c(O)ccc12	-12	/	101	77
COCCNC(=O)C1CCN(C(=O)C(C)(C)C)CC1	-30	/	83	87
Cc1ccc(-c2nnc3ccccc3c2C(=O)Nc2ccccc2F)cc1	/	105	100	89
O=C(O)c1cccc(S(=O)(=O)Nc2ccccn2)c1	-23	104	89	83
Cn1c(=O)n(C)c2cc(CNCCNC(=O)c3nonc3N)ccc21	-18	100	/	/
O=C(c1ccccc1)N1CCN(c2ccc(NCc3ccc4c(c3)OCO4)cc2)CC1	/	101	115	67
CCn1cnc2cc(NC(=O)COc3ccccc3)ccc21	-6	101	108	86
CC(C)OC(=O)C1CC(C)(O)C(=O)C(C(=O)OC(C)C)C1c1ccc(F)cc1 (stereo not drawn)	-18	102	109	85
COc1cccc(-n2cc(C(=O)OCc3ccc(F)c(F)c3)c3ccccc3c2=O)c1	/	101	112	59
Cc1cc(C(=O)NCCCN2CCCC2)c2c(=O)n(C)c(=O)n(C)c2n1	-8	103	/	/
Brc1cccc(-c2nn(-c3ccccc3)c3c2cnc2cc4c(cc23)OCO4)c1	-13	104	100	92
Cc1ccc(CS(=O)(=O)c2ncc(Cl)c(C(=O)Nc3nc4ccc(C)cc4s3)n2)cc1	-28	99	92	79
CCc1ccc2nc(NC(=O)Cc3csc(NC(=O)c4ccco4)n3)sc2c1	-29	/	101	84
CC1CC(C)(C)NC(=S)N1CC(=O)NCc1ccc2c(c1)OCO2 (stereo not drawn)	/	105	119	88
O=C(OCC1CCCN2CCCCC12)c1ccccc1O (stereo not drawn)	-4	/	70	85
O=C1C2N=NN(Cc3ccccc3F)C2C(=O)N1c1ccc(F)cc1 (stereo not drawn)	-22	97	/	/
CCC(Sc1ccc(C(=O)O)cc1)C(=O)O (stereo not drawn)	1	99	92	112
CCOC(=O)C1(C#N)C(=O)C(C#N)=C2CCCCC2C1c1ccccc1 (stereo not drawn)	-68	-31*	92	87
CCC(=O)Nc1sc2c(c1C(=O)Nc1ccccc1C)CCC(C)C2 (stereo not drawn)	/	107	113	106
O=C(CSCc1ccc(F)cc1)N1CCc2c([nH]c3ccccc23)C1c1ccccc1 (stereo not drawn)	/	102	70	95
Cc1ccc(N2CCN(C(=O)c3cc(S(=O)(=O)N4CCCCC4)c[nH]3)CC2)c(C)c1	/	105	131	89
COc1ccc(CN2C(=O)C(C)N(c3ccc(C)cc3)C2=O)cc1F (stereo not drawn)	-16	/	109	86
Nc1ncc(Br)cc1S(=O)(=O)NCc1cccnc1	/	104	108	93
O=C(CCCc1ccccc1)NC1CC(=O)N(c2ccc(F)cc2)C1 (stereo not drawn)	/	95	92	87
Cn1cnc2nc(SCC(=O)O)nc(N)c21	-26	98	95	86
Cc1ccc(OCCCCn2c(CCNC(=O)C(C)(C)C)nc3ccccc32)cc1	-19	102	102	86
CCCCN(C)C(=O)c1ccc2c(c1)N(Cc1ccccc1)C(=O)c1ccccc1S2=O (stereo not drawn)	3	103	80	100
Other structures follow.
SMILES	HCMV UL50-53 inh	GIV Gai3 FP	Sa growth 42C	Sa growth 42C second temp
O=C(Nc1ccc(F)cc1)C1CCCN(c2ccc3cc(S(=O)(=O)N4CCCCC4)ccc3n2)C1 (stereo not drawn)	-16	105	/	/
CCCOc1ccc(C2=NC(c3ccc(F)cc3)=Nc3ccc(OC)cc3N2)cc1	-8	102	89	96
CC1CN(C(=O)n2ccnc2)c2ccccc2S1 (stereo not drawn)	/	99	84	85
O=C(Cn1c2ccccc2c(=O)c2cc([N+](=O)[O-])ccc21)Nc1ccc2c(c1)CCC2	-12	107	/	/
CCC(Sc1nccn(-c2cccc(C)c2)c1=O)C(=O)Nc1cc(C)ccc1C (stereo not drawn)	-27	99	/	/
CCn1nnc2cc(C(=O)Nc3cccc(C(F)(F)F)c3)ccc21	/	102	81	91
Cn1c(NC(=O)Cc2ccccc2)cc(=O)n(C)c1=O	-26	99	97	88
CC(C)(C)C(=O)C[n+]1ccc(C(N)=O)cc1	/	100	97	85
CC(=O)Nc1ccc(SC(C)C(=O)NC(N)=O)cc1 (stereo not drawn)	-7	/	101	95
CCc1cc2c(cc3c(=O)n(CCCC(=O)NCc4cccc(Cl)c4)ncn32)s1	-38	102	125	92
COc1ccc(NC(=O)OCC(F)(F)F)cc1	-14	105	82	94
CN(C)c1cccc(C(=O)NCc2ccc3c(c2)N(C(=O)c2ccccc2)CC3)c1	8	97	/	/
Cc1ccn2c(Nc3ccc(C(C)C)cc3)c(-c3cccnc3)nc2c1	48	101	102	83
NC(=O)COC(=O)c1cccc(S(=O)(=O)N2CCc3ccccc3C2)c1	-20	/	66	94
CCC(C)NC(=O)CC(c1ccc(OC)cc1)n1cccc1 (stereo not drawn)	/	102	93	86
O=C(O)c1ccccc1-c1nn[nH]n1	-16	/	101	81
CC(C)(C)Cc1ccc(OCCCC(=O)O)c(CC(C)(C)C)c1	-18	/	53	53
CCC(Sc1nc2ncccc2[nH]1)C(=O)Nc1ccccc1F (stereo not drawn)	/	110	108	96
COC(=O)c1c(O)c(C=Nc2ccc(Br)cc2)c(=O)n2c1CCC2	-4	/	94	93
Cc1ccc2oc(=O)c3cnn(CC(=O)NCCCN4CCC(C)CC4)c3c2c1	/	100	113	89
CCOC(=O)c1nc2ccccc2c(=O)[nH]1	-18	/	131	88
CC(=O)Nc1ccc(OS(=O)Nc2nnc(C)c3ccccc23)cc1 (stereo not drawn)	-6	/	89	86
N#C/C(=C\c1ccc(Cl)cc1Cl)c1c[nH]c2ccccc12	-12	110	71	69
Cc1cccc(-c2noc(CNC(=O)c3ccccc3Br)n2)c1	-24	100	124	83
COc1ccccc1N(C)C(=O)CCS(=O)(=O)c1ccc2c(c1)OCC(=O)N2	/	99	90	88
Nc1nnc(SCC(=O)N2CCc3ccccc3C2)s1	-16	97	92	81
CS(=O)(=O)NCc1nnc(SCC(=O)NC2CCCCC2)n1-c1ccc(F)cc1	-18	99	105	102
O=C(Nc1ccc(F)cc1F)c1c2c(nc3ccccc13)C(=O)N(C1CCCCC1)C2	/	101	106	84
CCOc1ccc(CN2CCc3nc(Nc4ccc(OC)cc4OC)ncc3C2)cc1	/	105	86	95
CCOC(=O)N1CCN(C(=O)c2ccc3c(c2)NC(=O)C(CSCc2ccccc2F)N3)CC1 (stereo not drawn)	-32	311	94	87
Cc1nn(Cc2noc(-c3ccccc3F)n2)c(C)c1S(=O)(=O)N1CCCC1	-32	105	/	/
C#C[C@]1(O)CCC2C3CCc4cc(OC)ccc4C3CC[C@@]21C (stereo partly drawn)	-14&-52	/	98	96
O=C(Cn1ccc2cc(S(=O)(=O)N3CCCC3)ccc21)NC1CCCC1	0	97	/	/
CN(C)C(=O)COc1ccc(S(=O)(=O)c2ccc(OCC(=O)N(C)C)cc2)cc1	7	108	89	89
O=c1ccc2nncn2[nH]1	-2	110	99	94
C#CCn1c(O)c(N=NC(=O)CNC(=O)c2ccccc2)c2ccccc21	-50	107	104	92
Nc1nc(-c2ccccc2)nn1C(=O)C(c1ccccc1)c1ccccc1	-22	101	/	/
CCCOc1ccccc1NC(=O)C1CC(=O)n2c(nnc2-c2ccc(OC)cc2)S1 (stereo not drawn)	-14	/	33	29
C=C(C)C1CC=C(C)C(OC(=O)c2ccccc2C(=O)O)C1 (stereo not drawn)	0	110	159	97
CC(C)CCNC(=O)C1c2c(n(C)c3ccccc23)SCC(=O)N1CCC(C)C (stereo not drawn)	-18	97	/	/

Outcome played no part in choosing rows. Share with any hit: about 0.85%.
